Compound activity: PubChem BioAssay, ICCB-Longwood Screening Facility, Harvard Medical School
LANA-nucl inh: LANA-nucleosome interaction inhibition. FITC-LANA1-23 / chicken nucleosome fluorescence polarization; active compounds read low. z-score (no concentration beside the values). 51,000 compounds, 0.3% hits. AID 720717;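 active means both repeat wells score below -2 in polarization z-score versus plate sample wells, excluding overly bright wells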;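 further: 100 nL library stock added to about 30 µL; numbers are from one replicate; some results filed as inactive read as strong as hits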
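Material: Purified chicken nucleosomes with FITC-labelled LANA N-terminal peptide (1-23) | Reagent: 50 nM FITC-LANA1-23 probe | Medium: TEN-BT buffer, pH 7.5 | Times: 10–45 min incubation at room temperature | Detection: Fluorescence polarization | Replication: Duplicates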
BasE inh: BasE siderophore biosynthesis inhibition; purified BasE, fluorescence polarization binding displacement; inhibition, % (no concentration beside the values); 84,000 compounds, 0.1% hits;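 active means both replicates above 25% with normal brightness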;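 further: 0% = negative plate control signal and 100% = positive plate control signal; stock transfer was 100 nL into about 30 µL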
An asterisk follows results filed as active; nt = no result given; & = joins results of further samples. Some of the compounds tested, so the mix of outcomes need not match the whole.

SMILES	LANA-nucl inh	BasE inh
CC1=NN(c2ccccc2)C(=O)/C1=C/c1coc2ccccc2c1=O	-0.19	-1.5
CC(C)(C)Cc1nc(C2(c3ccc(Cl)cc3Cl)CC2)no1	nt	1.8
O=C(Cn1c(CCCO)nc2ccccc21)N1CCc2ccccc21	nt	-0.3
CCNC(=O)c1c(O)c2ccccc2n(CC)c1=O	-0.15	-3.2
CCOC(=O)c1[nH]c(C)c(C(=O)OCCOc2cccc(C)c2)c1C	nt	-0.1
c1ccc(C2=Nc3ccccc3N=C(c3ccccc3)C2)cc1	nt	-0.8
C1CCC[C@H]2CCCN3CC[C@H](CCCCCC[C@@H]4CCCN5CC[C@H](CC1)O[C@H]45)O[C@H]23	-0.98	-0.4
Cc1noc(C)c1COc1cccc(C(=O)N2CCc3ccccc32)c1	nt	0.4
CC(C)N=C(N)CCn1cnc2c1c(=O)n(C)c(=O)n2C	0.2	2.7
CC(=O)Nc1ccc(NC(=O)Nc2ccccc2)cc1	nt	2.4
Cn1ccc2c(OCC(=O)c3ccccc3)cccc2c1=O	0.78	-0.2
CCOC(=O)CC1(c2ccccc2)SC(NC(C)=O)=NN1C(C)=O (configuration not stated)	0.18	0.7
C=CCNC(=O)CN1CCC(O)(c2ccccc2F)CC1	0.29	1.3
CN(Cc1cccs1)c1cc(=O)n2cc(Cl)ccc2n1	nt	-1.4
O=C(CSCc1ccccc1)Nc1cc(=O)[nH]c(=O)[nH]1	-0.53	0.9
CCOc1cccc2cc(C(=O)NCc3ccccc3)c(=N)oc12	-0.88	1.5
Cc1ccc(-c2nn(-c3ccccc3)cc2/C=C(\C#N)C(=O)Nc2ccc(SC(F)F)cc2)o1	nt	2.1
COc1ccc(NC2=NCCCCC2)nc1	nt	9.6
CC(=O)Nc1ccccc1OC(C)C(=O)N1CC(C)CC(C)C1 (configuration not stated)	nt	1.0
CC(C)(C)c1ccc(-c2nnco2)cc1	-0.14	1.7
CC(C)CC(=O)NC1(C(F)(F)F)N=C2SCCN2C1=O (configuration not stated)	1.8	-4.8
CC1CC(C)(C)N(C=O)c2ccccc21 (configuration not stated)	-0.039	12
COc1c(C(=O)O)csc1Cl	nt	-3.7
O=C(Nc1cccnc1)C1c2ccccc2Oc2ccccc21	nt	0.5
O=C(CN1C(=O)C2C3C=CC(C3)C2C1=O)NCC1(N2CCCCC2)CCCCC1 (configuration not stated)	nt	4.7
Cc1ccc(C)c(S(=O)(=O)N2CCN(CC(=O)Nc3ccc4[nH]c(=O)[nH]c4c3)CC2)c1	nt	-0.8
CCOc1c(NC(=O)c2ccc(N)cc2)cc(NC(=O)c2ccc(N)cc2)cc1C(N)=O	nt	2.5
O=C(CC1Sc2ccccc2NC1=O)OCc1cc(=O)oc2cc(O)ccc12 (configuration not stated)	nt	1.6
COc1ccc(Cl)cc1NC(=O)C1CC(=O)n2c(nc3ccccc32)N1 (configuration not stated)	-1	0.5
Fc1cccc(-c2[nH]ncc2-c2nnnn2-c2ccccc2)c1	-0.61	0.3
O=C(NCc1cccs1)c1cccc(OC(F)F)c1	nt	-1.0
CCOC(=O)CN1C(=O)C2(C(C#N)=C(N)Oc3ccccc32)C2=C1CC(C)(C)CC2=O (configuration not stated)	-0.42	0.0
COC(=O)c1ccc(NS(=O)(=O)c2cc(C(=O)OC)n(C)c2)cc1	-0.54	0.7
Cc1[nH]c(=O)[nH]c(=O)c1S(=O)(=O)N1CCC(C(=O)NCCN2CCN(c3ccccc3)CC2)CC1	0.31	1.0
CCOC(=O)c1sc(N)c(C#N)c1COC(=O)[C@@H]1CCCN1C(=O)c1cccs1	nt	-36
O=C(Sc1nc2ccccc2o1)N1c2ccccc2Sc2ccccc21	0.23	2.6
CSc1nnc(CNC(=O)c2ccccc2)n1-c1cccc(C)c1	-0.52	-0.1
O=C1Nc2ccccc2/C1=C/C(=O)c1ccco1	-1.2	1.2
Cc1c(Br)sc2sc(-c3nn(C)cc3Br)c(C)c12	nt	2.0
O=C(/C=C/c1cc(Cl)c2c(c1)OCO2)N(Cc1ccco1)Cc1cccs1	nt	-0.7
CC(C)(C)c1ccc(COC(=O)c2ccc[nH]c2=O)cc1	nt	-0.3
O=C(Nc1cccc(-c2nc3ccccc3o2)c1)c1ccccc1	-0.3	-0.5
CC(C)NC(=O)CCCn1sc2ccccc2c1=O	0.21	-1.0
CS(=O)(=O)c1ccc(NC(=O)CN2CSCC2=O)cc1	nt	-2.6
CCCc1c(C(=O)Nc2ccccc2N2CCCCC2)cnn1-c1ccccc1	-0.59	nt
COc1ccc(CNC(=S)N(CC(N)=O)C(C)C)cc1	nt	-1.1
Nc1nc(N)nc(-c2cc(Cl)ccc2Cl)n1	-0.91&0.44	nt
Cc1cc(C(F)(F)F)nn1C(=O)c1cccnc1Cl	nt	-0.1
C=CCN1C2=NC(=O)CN2c2ccccc21	nt	-0.1
Nc1nc(CN2CCN(C(=O)c3ccco3)CC2)nc(N2CCCc3ccccc32)n1	-0.073	-0.6
CC(C)c1ccc2c(c1)CCC1C(C)(CNC(=O)/C=C/C(=O)O)CCCC21C (configuration not stated)	nt	1.4
CC(C(=O)Nc1ccc(C(N)=O)cc1)N1CCC(c2nc3ccccc3o2)CC1 (configuration not stated)	nt	-0.6
CCCn1ccc2c(OCC(=O)Nc3ccc(NC(C)=O)cc3)cccc2c1=O	-0.3	1.4
CCN(CC)C(=O)CSc1n[nH]c(-c2cccs2)n1	nt	3.7
C=Cc1c(S(C)(=O)=O)sc(C(=O)Oc2ccccc2)c1C	nt	-11
CN(C)c1ccc(C(O)C(=O)c2cccs2)cc1 (configuration not stated)	1.1	1.1
N#Cc1c(N)c2ccccn2c1C(=O)c1ccc(Br)cc1	nt	1.3
O=C1CSC(c2cccnc2)N1CC1CC1 (configuration not stated)	-0.51	0.1
Cc1nc(N)nc(SCc2ccccc2Cl)c1Cl	0.2	nt
Cc1nc(NCc2ccc(F)cc2)nc2c1C(=O)c1ccccc1-2	-1.7	1.2

Ordered by the number under LANA-nucl inh (low to high): 3 of the compounds above
mol | LANA-nucl inh
Cc1nc(NCc2ccc(F)cc2)nc2c1C(=O)c1ccccc1-2 | -1.7
CCCc1c(C(=O)Nc2ccccc2N2CCCCC2)cnn1-c1ccccc1 | -0.59
Cc1nc(N)nc(SCc2ccccc2Cl)c1Cl | 0.2

Carrying on:
SMILES	LANA-nucl inh	BasE inh
CCC(=O)Nc1nnc(SCC(=O)Nc2ccc3c(c2)OCO3)s1	1.4	-1.6
CNC(=S)N1CCN(c2cccc(C)c2C)CC1	0.2	-0.5
Cc1cc(C)cc(C(=O)NCC(=O)OCN2C(=O)c3ccccc3C2=O)c1	nt	1.9
O=C(Cn1ncn2nc(-c3ccccc3)cc2c1=O)N1CCCC1	-0.73	4.6
Cn1c(Cc2cccc3ccccc23)nnc1SCc1ccccc1C#N	0.062	-1.1
COCCNC(=O)Cn1cnc2onc(-c3ccc(F)cc3)c2c1=O	nt	-1.4
O=C(Nc1ccc(Cl)cc1C(=O)N1CCOCC1)c1ccco1	2.1	-2.7
CC1CCCN(CCS(=O)(=O)c2ccccc2)C1 (configuration not stated)	1	2.0
O=C(CN1C(=O)S/C(=C\c2ccc(-c3ccc(F)cc3F)o2)C1=O)N1CCOCC1	0.41	-1.6
Cc1cc(C)c(C(=O)O)c(=S)[nH]1	nt	2.1
CC(NC(=S)Nc1ccc2c(c1)OCO2)C1CCCO1 (configuration not stated)	-0.38	1.8
CN(C)/C=C/C(=S)c1cccs1	nt	0.2
Cc1nc(-c2ccc(OCC(=O)O)cc2)cs1	-0.25	-0.6
Cc1cc(CNCCCN2CCCCC2C)c(C)n1-c1ccnn1C(C)C (configuration not stated)	nt	-0.1
N=c1n(CC(=O)O)c2ccccc2n1Cc1ccccc1	0.94	-1.1
Cc1cc(C)c2c(-n3cccc3)c(C(=O)NC(C)C)sc2n1	0.39	3.2
CN(C(=O)CN1CCN(c2cccc(C(F)(F)F)c2)CC1)C1CCS(=O)(=O)C1 (configuration not stated)	nt	1.5
CCCCNC(=O)Oc1ccc(-c2csnn2)cc1	0.61	0.2
COC(=O)c1ccc(NC(=O)CSC2=NCCS2)cc1	-0.12	-0.1
O=c1nc(-c2ccccc2)c2cc(SC(F)F)ccc2[nH]1	1.1	-2.3

Brought forward from above: 7 entries; new compounds follow.
SMILES	LANA-nucl inh	BasE inh
Cc1cc(CNCCCN2CCCCC2C)c(C)n1-c1ccnn1C(C)C (configuration not stated)	nt	-0.1
N=c1n(CC(=O)O)c2ccccc2n1Cc1ccccc1	0.94	-1.1
Cc1cc(C)c2c(-n3cccc3)c(C(=O)NC(C)C)sc2n1	0.39	3.2
CN(C(=O)CN1CCN(c2cccc(C(F)(F)F)c2)CC1)C1CCS(=O)(=O)C1 (configuration not stated)	nt	1.5
CCCCNC(=O)Oc1ccc(-c2csnn2)cc1	0.61	0.2
COC(=O)c1ccc(NC(=O)CSC2=NCCS2)cc1	-0.12	-0.1
O=c1nc(-c2ccccc2)c2cc(SC(F)F)ccc2[nH]1	1.1	-2.3
COc1ccc(OC)c2[nH]c(=O)c(CCNC(C)=O)cc12	-0.13	-0.5
O=C(CSc1nc2cc(C(=O)NCc3ccco3)ccc2c(=O)n1Cc1ccco1)c1ccccc1	-0.26	-1.6
NCc1noc(-c2ccccc2)n1	-0.46	-0.3
COc1ccc(CNS(=O)(=O)c2cccc3nsnc23)cc1	-0.19	-0.4
Cc1cccc2sc(NC(=O)c3ccncc3)nc12	nt	1.9
CC(Nc1ccc2c(c1)OCO2)C(=O)Nc1ccccc1 (configuration not stated)	nt	0.5
c1ccc(CN2c3ccccc3-c3nc4ccccc4n3C2c2ccco2)cc1 (configuration not stated)	0.19	-0.6
Oc1ccc(Oc2ncc(Cl)cc2Cl)cc1	0.26	11
CCOC(=O)C1=C(CN2CCOCC2)NC(=O)NC1c1cccs1 (configuration not stated)	-0.19	1.1
CC12C(=O)C3C4CC5C3C(=O)C1C5C42 (configuration not stated)	-0.28	0.9
O=c1[nH]c2ccc(N=Cc3ccccc3C(F)(F)F)cc2[nH]1	1.1	-0.1
Cc1occc1-c1nnc(SCC(=O)c2c[nH]c3ccccc23)n1-c1ccccc1	nt	-4.5
Cc1ccc(S(=O)(=O)NC(=O)N2CCC(Nc3nccc(C(F)(F)F)n3)CC2)cc1	nt	2.0
COc1ccc(Cc2nnc(SCC(=O)C(C)(C)C)n2-c2ccc(F)cc2)cc1OC	nt	-0.2
Cc1noc(C)c1COC(=O)/C=C/c1ccc2c(c1)OCO2	nt	-0.2
CCN(CC)c1nc(N2CCOCC2)nc(N2CCOCC2)n1	1	-1.0
Oc1ccc(-c2nc3ccccc3s2)cc1	nt	-2.3
O=C(CSc1nnc(COc2ccccc2)o1)N1CCc2ccccc21	-0.2	-0.8
Cc1ccc(C)n1-c1nnc(N2CCC(C(=O)NC3CCCCC3)CC2)s1	0.15	1.0
CN1CCC(=NNC(=O)c2cccc(S(=O)(=O)Nc3cc(Cl)ccc3Cl)c2)CC1	nt	0.9

Rewritten with each value named: entries from further up
> CCN(CC)c1nc(N2CCOCC2)nc(N2CCOCC2)n1
  LANA-nucl inh: 1	BasE inh: -1.0
> Oc1ccc(-c2nc3ccccc3s2)cc1
  LANA-nucl inh: nt	BasE inh: -2.3

Later entries.
SMILES	LANA-nucl inh	BasE inh
CCN(CC)CCNc1ncnc2c1cnn2-c1ccc(F)cc1	-0.63	-0.5
CCCCc1ccc(C(NC(=O)CCCn2cnc3c2c(=O)n(C)c(=O)n3C)c2cccs2)cc1 (configuration not stated)	nt	1.2
CC(=O)NC1C(O/N=C2/C(=O)N(CCOc3ccccc3C)c3ccc(C)cc32)OC(CO)C(O)C1O (configuration not stated)	-0.96	0.1
O=C(CN1CCC(NC(=O)Nc2ccccc2-c2ccccc2)CC1)NCc1ccco1	-0.22	0.6
Nc1ncnc2c1nc(SCCO)n2Cc1ccccc1	1.4	-0.2
CCc1c(C)nc2cc(-c3cc(OC)cc(OC)c3)nn2c1NCCO	1.2	-1.8
COC(=O)C1=C(O)/C(=C\c2ccc(Br)cc2)N=C1C	nt	1.2
Cc1cc(C(=O)COc2ccc(Br)cc2F)c(C)n1C1CC1	nt	-0.5
Cc1cc(CSc2cc(C)c(Cl)cc2C)no1	nt	1.0
COc1ccc(CCNC(=O)c2snnc2C)cc1	-0.61	-0.5
COc1ccc(C(=O)OC(C)CN(C)C)cc1 (configuration not stated)	nt	-0.3
O=C(NC(c1ccccc1)c1ccccc1)C1CCCO1 (configuration not stated)	1.9	-4.7
CC1CCC(C(C)C)C(OC(=O)COC(=O)c2ccc(O)cc2)C1 (configuration not stated)	nt	0.9
N#C/C(=C/Nc1ccc2c(c1)OCCO2)C(=O)NCc1ccco1	-0.83	0.8
COC(=O)c1ccc(CSc2nncc(=O)n2N)o1	1.1	-0.7
O=C(NCCc1ccccc1)c1cnc(N2CCCC2)nc1	-0.43	-0.1
CCOc1ccccc1NC(=S)NNc1nc2ccccc2o1	nt	2.5
O=C(c1ccco1)N1CCN(CCN2CCOCC2)CC1	nt	2.0
N#CC(C(=O)c1cc2ccccc2o1)c1nc2ccccc2s1 (configuration not stated)	nt	9.8
c1cnc(SCCOc2ccc3c(c2)CCC3)nc1	-1.2	1.3
O=C(Cc1n[nH]c(=O)c2ccccc12)Nc1ccccc1C(=O)NC1CCCC1	nt	-2.4
N#CCCNc1nncs1	0.29	-1.4
O=S(=O)(c1ccc2oc3ccc(S(=O)(=O)N4CCCCCC4)cc3c2c1)N1CCCCCC1	nt	2.5
COC(=O)C1(C)NC(c2ccccc2C)C2C(=O)N(C)C(=O)C21 (configuration not stated)	0.61	1.0

Quoted at random: 2 entries already listed, in no set order.
SMILES	LANA-nucl inh	BasE inh
Nc1nc(N)nc(-c2cc(Cl)ccc2Cl)n1	-0.91&0.44	nt
Cc1nc(N)nc(SCc2ccccc2Cl)c1Cl	0.2	nt
